ALR H2O2 inh – blocks human ALR sulfhydryl oxidase activity; purified ALR, DTT oxidation, H2O2 HRP-luminol luminescence; hit rate 3.8% among 290,000; P55789; inhibition, % (no concentration beside the values);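 active = mean and each replicate at 75% or more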;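 note: stock transfer was 7.5 nL into about 7.5 µL; 0% = neutral wells and 100% = wells with inactivated enzyme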
UCH37 inh – inhibitors of human deubiquitinating enzyme UCH37 | Q9Y5K5 | purified proteasome/UCH37, Ub-AMC cleavage fluorescence | inhibition, % (concentration not given with the values) | hit rate 0.33% among 330,000;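 active = mean of two replicates above 20%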;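 note: 0% = compound-free wells with enzyme and 100% = wells lacking proteasome; stock transfer was 100 nL into about 20 µL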
Target sequence (Q9Y5K5 whole entry, looked up): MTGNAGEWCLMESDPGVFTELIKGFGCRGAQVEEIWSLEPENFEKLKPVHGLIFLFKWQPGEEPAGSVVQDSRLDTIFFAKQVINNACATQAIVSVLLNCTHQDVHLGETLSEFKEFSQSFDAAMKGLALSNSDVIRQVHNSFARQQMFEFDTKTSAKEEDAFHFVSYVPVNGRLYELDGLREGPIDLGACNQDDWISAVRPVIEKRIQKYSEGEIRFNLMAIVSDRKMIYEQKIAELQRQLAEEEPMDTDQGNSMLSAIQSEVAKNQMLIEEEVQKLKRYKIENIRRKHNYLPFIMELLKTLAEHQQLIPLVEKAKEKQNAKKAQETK
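Material: Human UCH37 enzyme supplied as purified proteasome complex | Schedule: 30 min preincubation with enzyme, 25 min cleavage at room temperature | Detection: AMC fluorescence 355/460 nm | Measure: % inhibition of Ub-AMC cleavage fluorescence | Controls: Wells without proteasome as full block, compound-free enzyme plus substrate as uninhibited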
E coli growth – E. coli growth inhibition. Escherichia coli growth, OD600, 23 h; hits give low values. OD600 absorbance (test concentration not listed). hit rate 0.21% among 330,000. AID 1053175;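 active = OD600 absorbance below the run mean of sample wells minus 3.6 SD, in any replicate, cut at about 0.56 in these data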;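 note: stock transfer was 300 nL into about 60 µL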
Beta2AR agonist – human beta-2 adrenergic receptor agonism by FAP. P07550. Am2.2-beta2AR cells, FAP receptor internalization, flow cytometry; reference of the scale not given here. response, % (test concentration not listed). hit rate 0.43% among 340,000. AID 504454;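 active = response above a set limit, near 3 SD of response in nonfluorescent compounds, cut at about 42% in these data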;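 note: stock transfer was 100 nL into about 11 µL; a reference agonist was the positive control; negative values mostly stem from fluorescent compounds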
HNF4A DNA FP – change in binding of human HNF4 alpha to DNA. activity change, % at 10 µM. hit rate 0.3% among 360,000. HNF4a-FITC DNA binding, fluorescence polarization, 1 h. P41235; in the data active = activity change above about 30%, passing the limit was not always enough;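 note: controls were the assay level and a saturating level of protein; the project sought stronger binding though the title names inhibitors; some compounds called inactive have numbers as strong as hits; positive values seem to mean higher polarization but the record does not say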
Target sequence (P41235 whole entry, looked up): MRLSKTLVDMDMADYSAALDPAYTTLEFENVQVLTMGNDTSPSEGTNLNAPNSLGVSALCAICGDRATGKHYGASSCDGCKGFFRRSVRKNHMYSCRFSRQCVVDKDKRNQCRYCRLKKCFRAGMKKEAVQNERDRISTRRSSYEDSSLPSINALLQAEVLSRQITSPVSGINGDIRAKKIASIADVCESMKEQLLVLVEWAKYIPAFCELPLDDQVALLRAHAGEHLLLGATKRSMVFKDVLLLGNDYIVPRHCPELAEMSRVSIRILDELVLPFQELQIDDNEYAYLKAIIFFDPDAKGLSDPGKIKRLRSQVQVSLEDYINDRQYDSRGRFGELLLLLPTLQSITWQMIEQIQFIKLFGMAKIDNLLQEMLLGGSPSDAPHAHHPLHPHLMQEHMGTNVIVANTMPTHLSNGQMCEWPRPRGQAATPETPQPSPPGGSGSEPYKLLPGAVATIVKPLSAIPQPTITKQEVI
Ecoli rRNA inh – selective bacterial rRNA inhibition in E. coli; E. coli WT GFP vs humanized-ribosome RFP mutants, fluorescence, 24 h; hits give low values; DMSO median 0, no signal -100; GFP signal change (wild-type ribosome), % (test concentration not listed); AID 720706; hit rate 1.6% among 350,000;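 active = significant combined selectivity score with lowered wild-type GFP, culture density cut under 30%, mutant RFP and density less affected; inactive = any of these conditions unmet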; note: one replicate is shown; some compounds called inactive have numbers as strong as hits
FGF22 binding – binders of recombinant human FGF22 by thermal shift. hit rate 1.5% among 340,000. calls only at 9.99 µM. SYPRO orange fluorescence; percent of sucrose octasulfate shift, DMSO zero;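 active = melting point raised past a set limit in the mean and every replicate; three in four hits are not shown here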
Target sequence (Q9HCT0 whole entry, looked up): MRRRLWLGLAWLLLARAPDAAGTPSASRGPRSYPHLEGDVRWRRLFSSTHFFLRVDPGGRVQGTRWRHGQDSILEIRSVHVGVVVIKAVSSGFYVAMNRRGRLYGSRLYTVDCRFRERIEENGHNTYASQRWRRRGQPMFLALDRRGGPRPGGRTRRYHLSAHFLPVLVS
Ecoli rRNA inh OD600 – further read-out of Ecoli rRNA inh, marked with its call; OD600 change, %; measured here: OD600 growth;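 optical density of the mix in the first replicate; 0 = DMSO median and -100 = no signal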
Ecoli rRNA inh RFP – recorded beside Ecoli rRNA inh, whose call it bears; RFP signal change, %; measured here: RFP humanized mutant strains;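 first replicate; 0 = DMSO median and -100 = no signal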
Starred values were filed as active, the others as inactive; i = inactive; · = not tested or not shown; & = joins results of further samples. Not all compounds are listed; count on the stated rates, not on these rows.

SMILES	ALR H2O2 inh	UCH37 inh	E coli growth	Beta2AR agonist	HNF4A DNA FP	Ecoli rRNA inh	Ecoli rRNA inh OD600	Ecoli rRNA inh RFP	FGF22 binding
CCc1ccccc1NC(=O)NNC(=O)CCc1ccccc1	-12	0.6	0.66	5	0.7	11	5	1.9	i
O=C(Nc1ccc(F)c(F)c1)c1ccc(F)c(S(=O)(=O)N2CCC3(CC2)OCCO3)c1	-5	1.0	0.64	4	0.1	-27*	-18*	-1.1*	i
C/C=C/c1ccc(OCC(O)CN2CCCCCCC2)c(OC)c1 (stereo not drawn)	2	1.5	0.69	0	2.5	5	-12	1.5	i
CN1CCCN(C(=O)c2ccc(Cl)cc2)CC1	-1	2.1	0.66	-1	0.0	8	10	0.5	i
COc1ccc(/C=N/NC(=O)c2ccc(Cl)c(S(N)(=O)=O)c2)cc1OCC(N)=O	·	·	·	3	3.2	-2	-10	-3.9	i
Cc1cc(C)nc(SCc2nnc(SCC(=O)OC3CCCCC3)o2)n1	·	4.4	0.72	-6	1.0	·	·	·	·
CCOC(=O)c1cc(S(=O)(=O)NCc2ccco2)cn1C	-11	3.3	0.7	-4	2.8	4	3	-3.8	i
CCOc1ccccc1C1NC(=O)NC(C)=C1C(=O)OC1CCCC1C (stereo not drawn)	-20	3.4	0.7	4	1.5	·	·	·	·
CCOc1cc(/C=C2/N=C(c3ccc4c(c3)OCO4)OC2=O)ccc1OC(C)=O	·	-16	0.65	9	1.0	8	9	-2.1	i
c1ccc(-c2ccccc2OCCN2CCCC2)cc1	-3	0.0	0.66	-8	-0.5	-3	-3	-3.0	i
Cn1c(SCC(=O)Nc2nnc(-c3ccccc3)o2)nnc1C1CC1	0	1.6	0.68	-2	0.8	8	-1	-0.4	i
COc1cc(C(=O)N2CCSCC2)ccc1OC1CCN(C(C)=O)CC1	-12	4.3	0.74	0	8.7	-3	1	-0.2	i
C=CC[n+]1c(-c2ccc(OC)cc2)csc1NNC(=O)Nc1ccccc1	10	4.6	0.7	1	0.9	0&6	-2&15	4.8&16	i
COc1cc(OC)c(NC(=O)CCNS(=O)(=O)c2ccc3c(c2)oc(=O)n3C)cc1Cl	-5	5.3	0.65	-10	1.6	-1	-5	0.5	i
COc1cc2[nH]c(=S)nc(NCc3cccnc3)c2cc1OC	-3	1.5	0.68	0	4.4	1	-1	1.3	i
CCS(=O)(=O)NCC(c1cccnc1)N1CCN(c2ccccc2OC)CC1 (stereo not drawn)	27	1.9	0.69	-1	-1.9	3	4	-2.9	i
O=C(O)Cc1ccc(NS(=O)(=O)c2ccc3ccccc3c2)cc1	·	1.0	0.62	12	1.1	0	-3	-4.0	i
CN(C)Cc1cc(C(C)(C)C)c(O)c(C(C)(C)C)c1	2	1.3	0.67	-4	-1.0	·	·	·	·
CC(Oc1ccc2c(-c3ccccc3)cc(=O)oc2c1)C(=O)NC(Cc1c[nH]c2ccccc12)C(=O)O (stereo not drawn)	·	7.0	0.67	-5	0.7	-12	-15	0.6	·
CCCOC(=O)c1cc(NC(=O)/C=C/c2ccccc2)ccc1O	5	0.7	0.67	·	-1.8	-26	-31	2.3	i
COc1ccc(CCC(=O)O)cc1OC	-1	-2.0	0.67	1	2.2	5	0	-8.4	i
COCCNc1nc(-c2cc(C)c(C)cc2C)cs1	53	0.3	0.71	6	-0.3	-15	-16	11	·
CN(C)S(=O)(=O)c1cccc(NC(=O)c2cc(=O)[nH]c3ccccc23)c1	-8	-9.9	0.7	-2	-0.8	7	13	-1.4	i
CCOC(=O)c1ccc(-n2c(O)c(/C=N/NC(=O)C3COc4ccccc4O3)c3ccccc3c2=O)cc1 (stereo not drawn)	9	-12	0.71	-10	0.3	-1	1	-4.9	i
COc1cc(C(C[N+](=O)[O-])c2c(N)n(C)c(=O)n(C)c2=O)ccc1O (stereo not drawn)	73	3.0	0.65	11	-3.7	1	4	0.8	i
The list goes on.
SMILES	ALR H2O2 inh	UCH37 inh	E coli growth	Beta2AR agonist	HNF4A DNA FP	Ecoli rRNA inh	Ecoli rRNA inh OD600	Ecoli rRNA inh RFP	FGF22 binding
COc1ccccc1Oc1c(C)oc2c(CN3CCOCC3)c(O)ccc2c1=O	-5	i	0.69	-10	-1.5	6	-6	-0.7	i
CCOc1ccc(C2=Nc3ccc(Br)cc3C(c3ccc(N4CCOCC4)cc3)=NN2)cc1	-4	3.6	0.74	2	1.0	·	·	·	·
C[C@@H](NC(=O)c1nc[nH]c1C(=O)N(C)Cc1ccccc1)c1ccccc1	1	4.6	·	-4	3.6	-2	-7	-3.7	i
COC(=O)N[C@@H]1C[C@H]2[C@@H]3CC[C@H]4C[C@@H](OC)CC[C@]4(C)[C@H]3CC[C@@]12C	-4	1.6	·	-9	-2.5	-9	-19	14	i
O=C(CCc1nc2ccccc2c(=O)[nH]1)Nc1ccc(Cl)c(Cl)c1	·	2.2	0.67	11	6.8	-9	-1	-3.9	i
COc1ccc(C2CC(C(F)(F)F)n3ncc(C(=O)Nc4c(C)n(C)n(-c5ccccc5)c4=O)c3N2)cc1 (stereo not drawn)	-7	1.2	0.65	-17	5.3	·	·	·	·
O=C1Nc2ccccc2/C1=N\N=C\C1=C(N2CCOCC2)C(=C\c2ccccc2)/CC1	-1	·	·	22	5.5	·	·	·	·
N/C(Cc1ccc([N+](=O)[O-])cc1)=N\OC(=O)c1ccccc1Br	5	·	·	-3	0.3	·	·	·	·
Cc1ccc(Cl)cc1N1CCN(S(=O)(=O)c2ccc3[nH]c(=O)c(=O)[nH]c3c2)CC1	1	-6.3	0.68	-11	4.5	-29*	4.5*	3.5*	i
COCc1nnc(NC(=O)c2sc3ccccc3c2Cl)s1	23	11	0.66	0	1.3	·	·	·	·
COCCCNC(=O)C[C@@H]1C[C@@]2(C(=O)OC)CCCCC=C2N(Cc2ccccc2)C1=O	·	·	·	·	0.1	-12	-9	-6.8	i
Cc1ccc(C(=O)CSc2ccc(-c3ccccc3)nn2)cc1	-2	-2.2	0.68	-9	0.7	-6	-10	-5.9	i
CCN1C[C@@H]2[C@@H]3C(=O)N(Cc4ccccc4)C(=O)[C@@H]3[C@](Cc3ccccc3)(C1=O)N2C(=O)c1ccc(C(F)(F)F)cc1	·	3.7	·	-8	2.4	11	4	7.1	i
COC(=O)c1cc(NC(=O)c2cc3ccccc3o2)cc(C(=O)OC)c1	0	-1.2	0.67	3	-0.7	-23*	2.1*	1.0*	i
Cc1ccc(N(CC(=O)NC2CCCCC2)C(=O)CCC(=O)Nc2nccs2)cc1	-7	2.2	0.63	-4	0.1	6	7	0.7	i
Brc1ccc2ncnc(NCc3cccnc3)c2c1	-6	3.2	0.63	1	-2.6	-11	-3	-2.9	i
CCCCNC(=O)c1ccc2c(OCC)n(CCCC)nc2c1	-1	-53	0.7	-1	7.2	1	-2	0.2	i
Cc1ccc(-n2c(O)c(C=NCc3ccccn3)c3ccccc3c2=O)cc1	·	1.1	0.71	-23	-3.4	5	2	-0.4	i
FC(F)(F)c1ccccc1N/N=C/c1cccnc1	7	·	·	-13	-1.2	6	6	-2.7	i
NS(=O)(=O)c1ccc(NC(=S)NC(=O)c2ccc(-c3ccccc3)cc2)cc1	-3	3.3	0.74	-1	-1.1	10	-4	-0.9	i
CN(Cc1ccc(Cl)cc1)C(=O)c1[nH]c(C(F)(F)F)nc1-c1ccccc1	·	·	·	·	-0.2	-11	-21	-3.2	i
Cc1cccc(-c2nnc3n2N=C(c2ccccc2)CS3)c1	3	1.4	0.73	-17	-1.4	·	·	·	·
CC(C)=C1C2CCC1C1C(=O)N(c3ccc(C)c(C)c3)C(=O)C21 (stereo not drawn)	-4	2.7	0.74	2	2.0	·	·	·	i
CCS(=O)(=O)N1CCCC(C(=O)NCCc2ccc(OC)c(OC)c2)C1 (stereo not drawn)	-13	-1.6	0.64	-4	-0.1	·	·	·	·
CCCC(=O)Nc1ccc(C2C(=O)c3ccccc3C2=O)cc1	·	13	0.6	-6	2.3	6	18	1.9	i

Entries of single compounds from above:
CC(C)=C1C2CCC1C1C(=O)N(c3ccc(C)c(C)c3)C(=O)C21 (stereo not drawn) is listed with ALR H2O2 inh: -4; UCH37 inh: 2.7; E coli growth: 0.74; Beta2AR agonist: 2; HNF4A DNA FP: 2.0; Ecoli rRNA inh: ·; Ecoli rRNA inh OD600: ·; Ecoli rRNA inh RFP: ·; FGF22 binding: i
COCc1nnc(NC(=O)c2sc3ccccc3c2Cl)s1 is listed with ALR H2O2 inh: 23; UCH37 inh: 11; E coli growth: 0.66; Beta2AR agonist: 0; HNF4A DNA FP: 1.3; Ecoli rRNA inh: ·; Ecoli rRNA inh OD600: ·; Ecoli rRNA inh RFP: ·; FGF22 binding: ·
CCS(=O)(=O)N1CCCC(C(=O)NCCc2ccc(OC)c(OC)c2)C1 (stereo not drawn) is listed with ALR H2O2 inh: -13; UCH37 inh: -1.6; E coli growth: 0.64; Beta2AR agonist: -4; HNF4A DNA FP: -0.1; Ecoli rRNA inh: ·; Ecoli rRNA inh OD600: ·; Ecoli rRNA inh RFP: ·; FGF22 binding: ·

(cont.)
SMILES	ALR H2O2 inh	UCH37 inh	E coli growth	Beta2AR agonist	HNF4A DNA FP	Ecoli rRNA inh	Ecoli rRNA inh OD600	Ecoli rRNA inh RFP	FGF22 binding
COc1ccc(C(CC(=O)O)NC(=O)c2sc3ccccc3c2Cl)cc1 (stereo not drawn)	·	1.0	0.74	-1	0.4	-20	-17	-0.1	i
C[C@H](NC(=O)[C@@H]1Cc2ccccc2CN1C(=O)OC(C)(C)C)C(=O)NCc1ccco1	-2	4.1	0.69	-12	-0.9	1	2	1.0	i
O=C(Nc1ccc2oc(Cc3ccc(Cl)cc3)nc2c1)c1cccnc1	12	6.1	0.69	-10	2.3	-14	0	0.9	·
CC1(Oc2cccc(Cl)c2)CCN(Cc2ccc(OC(F)(F)F)cc2)C1 (stereo not drawn)	·	·	·	·	-2.4	5	18	2.7	i
CCOc1ccc(OCC)c(NC(=O)CSc2nnc(-c3cccnc3)o2)c1	6	5.4	0.7	-4	2.5	·	·	·	·
Cn1c(=O)c2c(ncn2CC(=O)OCC(=O)Nc2ccc(F)cc2F)n(C)c1=O	·	-0.3	0.67	0	-1.8	6	1	1.6	i
Cc1[nH]c(=S)[nH]c(=O)c1Cc1ccccc1	-6	-0.1	0.68	2	-0.9	5	-18	-4.3	i
CCOc1ccc(NC(=S)N2CCC(NC(=O)c3ccccc3C)CC2)cc1	-2	2.6	0.66	-1	-0.7	9	12	1.3	i
CSCCCc1cn([C@@H](CO)C(=O)NCCCCCCCCCCC(=O)N2CCNCC2)nn1	9	-1.6	·	-5	0.9	9	2	2.3	i
CCCc1nc2ccc(C)cn2c1Cc1cccc(F)c1	·	·	·	·	1.3	5	-26	24	i
COc1ccc(C2/C=C\CN(C(=O)c3ccccc3)CC(=O)N2Cc2ccc(F)cc2)cc1 (stereo not drawn)	-1	6.1	·	-8	-2.0	6	-2	-3.9	i

Another view of part of the listing above:
Results follow in this order: ALR H2O2 inh	UCH37 inh	E coli growth	Beta2AR agonist	HNF4A DNA FP	Ecoli rRNA inh	Ecoli rRNA inh OD600	Ecoli rRNA inh RFP	FGF22 binding
- O=C(Nc1ccc2oc(Cc3ccc(Cl)cc3)nc2c1)c1cccnc1
  12	6.1	0.69	-10	2.3	-14	0	0.9	·
- CC1(Oc2cccc(Cl)c2)CCN(Cc2ccc(OC(F)(F)F)cc2)C1 (stereo not drawn)
  ·	·	·	·	-2.4	5	18	2.7	i
